Bioassay records as filed in PubChem BioAssay.
RN4220 kill: growth inhibition of S. aureus RN4220, primary screen, OD600; 16 h; inhibition, % (no concentration beside the values); 0.33% of 330,000 active;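 active = z-score of -3 or lower and OD600 up to 0.18 on both plates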;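 also: plate controls were untreated cells for no effect and reference antibiotic for full effect; stock transfer was 100 nL into about 80 µL; one replicate is shown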
BJeLR lethal: MLPCN primary cell-based screen for lethality selective to Ras in HRASV12 cells | BJeLR (HRASV12) viability, CellTiter-Glo ATP luminescence, 48 h; reference of the scale not given here | AID 1554, 2009 | 0.17% of 300,000 active | inhibition, % (no concentration beside the values);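 active = replicate mean above 50%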;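 also: 50 nL library stock added to about 25 µL; numbers are from one replicate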
Sa ugtP lethal: growth inhibition of ugtP-null S. aureus, primary screen, RN4220 ugtP deletion, OD600; 16 h; some inactives read as strong as hits; growth inhibition, % (concentration not given with the values); 0.54% of 330,000 active;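 active = z-score under -3 and OD600 up to 0.15 on both plates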;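 also: plate controls were untreated wells for no effect and antibiotic for full effect; wells of about 80 µL received 100 nL stock; the first replicate is given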
Mtb hypoxia inh: PubChem AID 1159583. M. tuberculosis hypoxia-regulated fluorescent reporter, fluorescence. fluorescence inhibition, % (concentration not given with the values). 0.1% of 300,000 active;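 active = 35 to 45% if threefold the growth effect, above 45% if 1.5-fold the growth effect; inactive = the rest, general growth blockers included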;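 also: wells of about 50 µL received 100 nL stock; 0% = vehicle wells and 100% = reference inhibitor wells; whole bacteria with a GFP reporter of the hypoxia response; strong numbers were not always called active; many hits fall short of the cut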
Bead autofluor: flagged as autofluorescent in microsphere protease counterscreen; compound autofluorescence counterscreen, microsphere flow cytometry; stronger effect = higher value; fluorescence intensity (no concentration beside the values); 3.1% of 360,000 active;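 active = at least 3 SD above the mean of all compounds, about 16000 in these data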;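 also: 100 nL of 1 mM stock went into each well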
PrP UTR inh: inhibition of PrP 5' UTR reporter expression | cell-based PrP 5' UTR mRNA reporter, plate reader | inhibition, % (no concentration beside the values) | 0.35% of 340,000 active | AID 488862, 2010;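 active = every replicate at 50% or more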;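 also: 0 = median of the neutral control wells; tested in H4 reporter cells; numbers are from one replicate; inactives centre near -14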
Mtb hypoxia inh growth: second read-out of Mtb hypoxia inh, no call of its own (marks repeat the call); growth inhibition, %; measured here: M. tuberculosis growth (absorbance);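 0% = vehicle and 100% = reference antibiotic; read after six days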
The depositor's hits bear a star; nt = no result given.

1. COc1cccc(NC(=O)CN(C)C(=O)c2ccc(COc3ccccc3)cc2)c1
2. C=C(C1=CCN(S(=O)C(C)(C)C)[C@H]1CCO)c1ccccc1 (some centres not stated)
3. CC(=O)CSc1cc(C)nc2c(-c3ccccc3)c(C)nn12
4. CC(=NCc1cccnc1)C1=C(O)c2ccccc2C1=O
5. CCc1cc(=O)oc2c(C)c(OCC(=O)NCCN3CCOCC3)ccc12
6. O=C(NNC(=O)c1ccccc1O)c1cccc(Br)c1
7. CC(=O)c1c(N2CCN(C)CC2)nc(=S)n(Cc2ccccc2)c1C
8. CN1CCC(=O)N(C(CSc2ccccc2)Cc2ccccc2)CC1 (configuration not stated)
9. CCCCCC1CC(CC#CCN2CCOCC2)C(=O)O1 (configuration not stated)
10. Cc1nc2cc(N3CCCCC3)c(NC(=O)c3cccnc3)cc2c(=O)n1Cc1ccccc1

assay / entry,1,2,3,4,5,6,7,8,9,10
RN4220 kill,-3.3,7.7,1.5,4.3,5.0,6.1,7.1,7.2,3.2,7.6
BJeLR lethal,-8,nt,0,8,-1,-3,-5,nt,15,13
Sa ugtP lethal,6,16,8,0,6,6,3,7,4,-4
Mtb hypoxia inh,3,3,12,nt,-6,10,-1,19,0,nt
Mtb hypoxia inh growth,-10,0,9,nt,-10,-5,0,11,8,nt
Bead autofluor,4478,2989,4136,2833,6936,2989,10893,nt,21965*,4961
PrP UTR inh,-22,-19,-20,-13,-10,-8,-20,nt,5,-5

11. Cn1ccnc1SCC(=O)c1cc2ccccc2o1
12. COc1ccc(-c2ccc(CCC(=O)O)n2NC(N)=O)cc1
13. COc1cc(S(=O)(=O)N2CCOCC2)cc(C(=O)NCC(c2cccs2)N2CCOCC2)c1OC (configuration not stated)
14. Cc1ccc(CCNC(=O)C2CCCN(S(=O)(=O)N3CC(C)CC(C)C3)C2)cc1 (configuration not stated)
15. COC(=O)c1cc(C#N)c(NCc2ccc(Cl)cc2Cl)nc1C
16. O=C(Oc1cccc2ccccc12)C1CC1
17. CCCC12CN3CCN(CC(C3)C1=NNC(=O)c1ccc(C(C)(C)C)cc1)C2
18. O=C(/C(C=Nc1ccc(Br)cc1)=C(/O)c1ccco1)C(F)(F)F
19. CCc1ccc(-c2cc3c(=O)n(CC(=O)NCCN4CCCCC4C)nc(C)n3n2)cc1 (configuration not stated)
20. O=[N+]([O-])c1ccc(N2CCN(c3ccccc3F)CC2)nc1

assay / entry,11,12,13,14,15,16,17,18,19,20
RN4220 kill,-0.8,1.8,2.1,1.4,-1.6,3.6,3.4,8.1,3.3,0.7
BJeLR lethal,-1,6,nt,-5,-3,-3,nt,-5,8,4
Sa ugtP lethal,4,2,4,2,1,9,1,7,10,8
Mtb hypoxia inh,4,15,7,2,nt,14,9,0,11,8
Mtb hypoxia inh growth,4,-5,3,5,nt,15,3,6,0,2
Bead autofluor,6676,5532,3472,5923,2647,2937,nt,2103,5668,3910
PrP UTR inh,-83,-34,-11,-10,-16,-34,nt,-169,-7,-24

21. O=[N+]([O-])c1ccc(N2CCCCC2)cc1SCCO
22. O=C1C(=O)C(c2ccccc2)C(=O)C1c1ccccc1 (configuration not stated)
23. COc1cc2c(cc1OC)C(c1cccc([N+](=O)[O-])c1)N(C(=O)c1ccccc1C(=O)O)CC2 (configuration not stated)
24. COc1ccc(-c2nnn(CCC(=O)O)n2)cc1
25. O=C(O)CCC1COc2ccccc2O1 (configuration not stated)
26. O=C(Cn1cccc(C(F)(F)F)c1=O)c1ccc(Cl)cc1
27. CCc1ccc(CN(C)C(=O)c2cccc(S(=O)(=O)Nc3ccccc3OC)c2)cc1
28. COC(=O)Cn1c(=NC(=O)c2ccc(OC)c(OC)c2)sc2cc(OC)ccc21
29. O=S(=O)(c1ccc(OCC(O)CN2CCN(c3ccc(F)cc3)CC2)cc1)N1CCOCC1 (configuration not stated)
30. O=C(Nc1ccc(C(=O)NCc2ccc(F)cc2)cc1)C1=CSCCO1

assay / entry,21,22,23,24,25,26,27,28,29,30
RN4220 kill,7.8,1.8,5.2,1.3,1.4,4.1,5.4,1.4,4.1,6.2
BJeLR lethal,6,nt,-7,-1,-2,-1,nt,5,7,7
Sa ugtP lethal,5,-1,4,12,10,9,1,-1,19,3
Mtb hypoxia inh,8,19,0,2,4,8,-2,3,6,1
Mtb hypoxia inh growth,2,9,-2,3,6,3,4,2,2,-2
Bead autofluor,4320,3905,3471,11209,9652,3212,5466,2382,9122,6448
PrP UTR inh,-8,-6,-1,-10,-14,-19,-19,-14,-26,-16

31. Cc1nn(C(C)C(=O)O)c(C)c1[N+](=O)[O-] (configuration not stated)
32. COC(=O)Nc1ccc(S(=O)(=O)N2CCCC(C(=O)N3CCCCCC3)C2)cc1 (configuration not stated)
33. O=C(COC(=O)C1CC2C=CC1C2)NCc1ccco1 (configuration not stated)
34. CCC(=O)N(CCC(c1ccco1)C(C)C)Cc1ccccc1 (configuration not stated)
35. O=C(O)c1ccccc1-c1nc2ccccc2[nH]1
36. CN(C)P(=O)(C(Cl)=C(N1CCCCC1)N1CCCCC1)N(C)C
37. N#C[C@H]1C(O)C(O)c2ccccc2N1C(=O)c1ccccc1 (some centres not stated)
38. C/C(=N\NC(=O)c1cc(-c2ccc(C)s2)[nH]n1)c1ccco1
39. COc1ccccc1CCc1nnc(CCC(=O)NCC(C)Oc2cccnc2)o1 (configuration not stated)
40. Cc1ccc(CNC(=O)COC(=O)c2cccc(S(=O)(=O)N3CCCCC3)c2)cc1

assay / entry,31,32,33,34,35,36,37,38,39,40
RN4220 kill,0.3,7.2,4.5,5.0,3.1,8.2,0.9,nt,0.8,1.3
BJeLR lethal,4,10,9,-10,1,-4,2,0,11,nt
Sa ugtP lethal,4,9,-6,8,8,-1,-18,nt,10,-4
Mtb hypoxia inh,6,15,12,0,15,-4,nt,nt,1,-8
Mtb hypoxia inh growth,5,7,9,4,6,10,nt,nt,1,-11
Bead autofluor,2581,4568,2907,4727,4858,8273,5469,2007,2590,3564
PrP UTR inh,-13,-5,-11,-8,-23,-11,-12,-32,-9,1

Next section; the last four above are carried over.
37. N#C[C@H]1C(O)C(O)c2ccccc2N1C(=O)c1ccccc1 (some centres not stated)
38. C/C(=N\NC(=O)c1cc(-c2ccc(C)s2)[nH]n1)c1ccco1
39. COc1ccccc1CCc1nnc(CCC(=O)NCC(C)Oc2cccnc2)o1 (configuration not stated)
40. Cc1ccc(CNC(=O)COC(=O)c2cccc(S(=O)(=O)N3CCCCC3)c2)cc1
41. CCC(=O)N(Cc1cc(=O)[nH]c2ccccc12)c1ccccc1
42. Nc1nc(SCc2ccccc2Cl)c2ncn(C3OC(CO)C(O)C3O)c2n1 (configuration not stated)
43. Cc1c(C)c2ccc(O[C@@H]3O[C@H](CO)[C@@H](O)[C@H](O)[C@H]3O)c(C)c2oc1=O
44. C/C(=N\Nc1ccc(S(N)(=O)=O)cc1[N+](=O)[O-])c1cccs1
45. CCCNC(=O)C12CCC(C)(C(=O)C1Br)C2(C)C (configuration not stated)
46. COc1ccc(/C=N/N2CCOCC2)cc1Cn1cc([N+](=O)[O-])cn1
47. COc1cccc(C(=O)Nc2nnc(S(=O)(=O)N(C)Cc3ccc(F)cc3)s2)c1
48. Oc1ccccc1C=NNC(=S)NN=Cc1ccccc1O
49. O=C(COC(=O)CCc1ccc(S(=O)(=O)N2CCOCC2)cc1)Nc1ccccc1OC(F)F
50. Cc1ccnc(NS(=O)(=O)c2ccc(NC(=O)C3COc4ccccc4O3)cc2)n1 (configuration not stated)

assay / entry,37,38,39,40,41,42,43,44,45,46,47,48,49,50
RN4220 kill,0.9,nt,0.8,1.3,5.7,3.5,3.1,nt,3.3,nt,25,1.7,1.6,1.5
BJeLR lethal,2,0,11,nt,-3,nt,-1,1,nt,-5,0,nt,nt,1
Sa ugtP lethal,-18,nt,10,-4,7,2,6,nt,1,nt,26,-19,3,10
Mtb hypoxia inh,nt,nt,1,-8,20,23,19,nt,8,nt,3,9,8,11
Mtb hypoxia inh growth,nt,nt,1,-11,-2,10,28,nt,9,nt,2,2,7,4
Bead autofluor,5469,2007,2590,3564,3134,2970,3895,4168,2505,5260,5225,3689,2852,2566
PrP UTR inh,-12,-32,-9,1,-3,-9,-26,-19,-9,-32,-6,-19,-8,-13

51. Cc1nnc(SCC(=O)N2CCc3ccccc3C2)s1
52. CSc1ccc(Cl)c(C(=O)NC2CCCC2)c1
53. COc1ccc(N/N=C(/C#N)S(=O)(=O)c2nsc(C)c2C#N)cc1
54. O=C(Oc1ccnc2cc(Cl)ccc12)N1CCOCC1
55. COC(=O)C1=C(C)N(CC2CC2)C(=O)NC1c1ccccc1 (configuration not stated)
56. COC(=O)c1nn(-c2ccccc2)c(=O)cc1Oc1ccc(Cl)cc1
57. COc1ccc(CC(=O)NC2CCN(CC(=O)N3CCCc4ccccc43)CC2)cc1OC
58. Cc1ccc(-c2cc(C(=O)N3CCN(C4CCS(=O)(=O)C4)CC3)c3ccccc3n2)cc1 (configuration not stated)
59. Cc1ccc(-c2noc(C3CCCN(C(=O)c4ccc(F)cc4F)C3)n2)cc1 (configuration not stated)
60. CC(/C=N/Nc1nnc2c(n1)[nH]c1ccccc12)=C\c1ccco1

assay / entry,51,52,53,54,55,56,57,58,59,60
RN4220 kill,5.4,1.3,nt,2.9,2.7,7.0,3.6,0.2,-4.2,nt
BJeLR lethal,5,-11,-7,1,nt,6,8,nt,13,-6
Sa ugtP lethal,-4,0,nt,-6,-4,12,16,7,8,nt
Mtb hypoxia inh,5,nt,nt,2,8,0,6,0,7,nt
Mtb hypoxia inh growth,8,nt,nt,-4,4,-4,1,2,6,nt
Bead autofluor,4542,4851,2549,6906,nt,4324,4370,3802,11435,7952
PrP UTR inh,-34,-2,-27,-21,nt,-15,-9,-23,-40,-67

61. Cc1ccc(Nc2cc(C)c(O)c(C)c2)cc1
62. Cc1c(S(=O)(=O)Nc2cc(Cl)ccc2Cl)c(=O)n(C)c(=O)n1C
63. Cn1cc(CCC(=O)NC2CC(C)(C)Cc3c2cnn3-c2ccc(F)cc2)cn1 (configuration not stated)
64. O=C1C2C3C=CC(O3)C2C(=O)N1Nc1ccccc1 (configuration not stated)
65. Cc1cccc(NC(=O)CSc2nnc(NC(=O)C3CC3)s2)c1C

assay / entry,61,62,63,64,65
RN4220 kill,4.5,14,3.0,3.8,1.1
BJeLR lethal,-5,-4,-8,nt,3
Sa ugtP lethal,11,-1,10,9,16
Mtb hypoxia inh,12,-1,4,17,7
Mtb hypoxia inh growth,8,1,-5,4,-3
Bead autofluor,3385,5292,4292,3027,5675
PrP UTR inh,-27,-12,-7,-30,-16
